Compound activity as filed in PubChem.
A1 inhib = A1 inhibition. caspase activation, % (test concentration not listed). hit rate 0.51% among 21,000. MEF A1-2A-BIM cells, caspase-Glo luminescence, 3 h; percent of clofoctol signal, DMSO as zero. AID 2241;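 active means most replicate scores above 10, or exactly half above 10 with mean activity above 10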;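 further: effector caspase 3 and 7 activity cleaving a DEVD luciferin substrate; 50 nL library stock added to about 30 µL; numbers are from one replicate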
BJeLR viab HTS = lowers viability of BJeLR cells; BJeLR fibroblasts viability, CellTiterGlo ATP luminescence, 48 h; HRASV12, hTERT and SV40 LT/ST transformed; viability loss activity score, % (test concentration not listed); hit rate 0.64% among 30,000; in the data active means viability loss activity score above about 50%; about a fifth of its hits are not listed in these tables;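 further: higher score means fewer live cells and less ATP luminescence; stock transfer was 50 or 100 nL into about 30 µL; 0% = vehicle wells and 100% = a reference killing control; one replicate is shown; the record names a cut of 85%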
Starred values were filed as active, the others as inactive; · = no result given.

1	N#CCC(=O)NCc1cccs1
2	O=C(c1ccc(Cl)cc1)N1CCCCC1
3	C=CC(C)(C)[C@@]12CC(=O)C(=O)N3/C(=C/c4cnc[nH]4)C(=O)N[C@]31N(OC)c1ccccc12
4	CC(C)NC(=O)Nc1cccc2c1O[C@H](CN(C)Cc1ccc(C(F)(F)F)cc1)[C@@H](C)CN([C@@H](C)CO)C2=O
5	CCC(Sc1nc2ccncc2[nH]1)C(=O)N(CC)CC (stereo not drawn)
6	C=C(C(=O)O)C1CCC2(C)CCCC(C)(O)C2C1 (stereo not drawn)
7	COc1ccc(NC(=O)Nc2cccc3c2O[C@@H](CN(C)C(=O)Nc2ccc4c(c2)OCO4)[C@@H](C)CN([C@H](C)CO)C3=O)cc1
8	CCOC(=O)N1CCC(NC(=O)C(NC(=O)C2CCC(C)CC2)C(C)C)CC1 (stereo not drawn)
9	Cc1cc(Br)ccc1NC(=O)CS(=O)(=O)c1cccc2nsnc12
10	Cc1noc(C)c1NC(=O)N(C)C[C@@H]1Oc2ccc(NC(=O)Cc3ccccc3)cc2C(=O)N([C@H](C)CO)C[C@@H]1C

entry no.	1	2	3	4	5	6	7	8	9	10
BJeLR viab HTS	2.9	-2.7	4.5	1.3	-3.6	-4.2	0.0	-2.4	16.8	-5.5
A1 inhib	-0.2	0.7	1.7	·	0.2	-0.5	·	·	·	0.2

Part of the list above, as a markdown table.
| cpd | Molecule | BJeLR viab HTS | A1 inhib |
| --- | --- | --- | --- |
| 6 | C=C(C(=O)O)C1CCC2(C)CCCC(C)(O)C2C1 (stereo not drawn) | -4.2 | -0.5 |
| 9 | Cc1cc(Br)ccc1NC(=O)CS(=O)(=O)c1cccc2nsnc12 | 16.8 | · |
| 10 | Cc1noc(C)c1NC(=O)N(C)C[C@@H]1Oc2ccc(NC(=O)Cc3ccccc3)cc2C(=O)N([C@H](C)CO)C[C@@H]1C | -5.5 | 0.2 |

Further records.
11	O=C1c2ccccc2C(Nc2ccc(S(=O)(=O)N3CCOCC3)cc2)N1Cc1ccccc1Cl (stereo not drawn)
12	Cc1ccc2oc(-c3cccc(NC(=O)CC(C)C)c3)nc2c1
13	C=C(C)C(=O)OCCc1ccc(O)c(-n2nc3ccccc3n2)c1
14	Cc1cc(C(=O)Nc2cccc3c2O[C@H](CN(C)CC2CC2)[C@H](C)CN([C@H](C)CO)C3=O)n(C)n1
15	CC12CCC(=O)N1c1ccccc1C(=O)N2c1ccccc1 (stereo not drawn)
16	Cc1cc(OC(C)c2nc(-c3nonc3N)no2)ccc1Cl (stereo not drawn)
17	COc1ccc(-n2ccc(-c3ccccc3)nc2=S)cc1
18	COc1ccccc1-c1cc(=O)c2c(O[C@@H]3O[C@H](CO)[C@@H](O)[C@H](O)[C@H]3O)cc(OC)c(OC)c2o1
19	O=C1N=C(N2CCOCC2)SC1=C1CCCC1
20	Cc1noc(C)c1S(=O)(=O)N(C)C[C@H]1Oc2ccc(NC(=O)CCCN(C)C)cc2C(=O)N([C@H](C)CO)C[C@H]1C

entry no.	11	12	13	14	15	16	17	18	19	20
BJeLR viab HTS	-1.9	-4.7	1.2	3.7	1.4	-3.8	-0.1	-0.9	-4.5	-9.5
A1 inhib	·	-6.6	-0.2	·	0.6	1.6	-0.5	0.4	-0.7	·

Next part; it opens with the three that closed the last part.
18	COc1ccccc1-c1cc(=O)c2c(O[C@@H]3O[C@H](CO)[C@@H](O)[C@H](O)[C@H]3O)cc(OC)c(OC)c2o1
19	O=C1N=C(N2CCOCC2)SC1=C1CCCC1
20	Cc1noc(C)c1S(=O)(=O)N(C)C[C@H]1Oc2ccc(NC(=O)CCCN(C)C)cc2C(=O)N([C@H](C)CO)C[C@H]1C
21	CCN(CC)S(=O)(=O)c1cc(Br)cnc1N
22	Cc1ccc(S(=O)(=O)N2Cc3ccccc3C(C)CC23CCCCC3)cc1 (stereo not drawn)
23	CCOC(=O)c1cccc(NC(=O)c2ccc(-c3ccccc3)s2)c1
24	CC(NC(=O)c1ccc(C23CC4CC(CC(C4)C2)C3)cc1)C(=O)O (stereo not drawn)
25	C[C@H](CO)N1C[C@H](C)[C@@H](CN(C)Cc2ccc(C(=O)O)cc2)Oc2c(NC(=O)c3nc4ccccc4s3)cccc2C1=O
26	Cc1noc(C)c1NC(=O)NCc1ccc2c(c1)OCO2
27	C[C@H]1CN([C@@H](C)CO)C(=O)c2cccc(NC(=O)Nc3ccc(F)cc3)c2O[C@@H]1CN(C)C(=O)NC1CCCCC1
28	C[C@H]1CN([C@@H](C)CO)C(=O)c2cccc(NC(=O)c3ccncc3)c2O[C@@H]1CN(C)Cc1ccncc1
29	CCCN1C(=O)C2(c3ccccc31)c1c(oc3ccccc3c1=O)C(=O)N2CCOC (stereo not drawn)
30	N#CCC(c1ccccc1)c1ccccc1

entry no.	18	19	20	21	22	23	24	25	26	27	28	29	30
BJeLR viab HTS	-0.9	-4.5	-9.5	3.0	-1.7	6.5	3.2	1.7	-0.7	1.2	-6.9	3.1	3.1
A1 inhib	0.4	-0.7	·	1.0	-0.3	-2.1	0.1	·	0.9	·	·	0.7	-0.2

31	Cc1ccc(S(=O)(=O)Nc2ccc3c(c2)C(=O)N([C@@H](C)CO)C[C@H](C)[C@H](CN(C)C(=O)Nc2c(C)noc2C)O3)cc1
32	C[C@@H]1CN([C@H](C)CO)C(=O)c2cccc(NC(=O)C3CCOCC3)c2O[C@H]1CN(C)CC1CC1
33	C[C@@H]1CN([C@@H](C)CO)C(=O)c2cccc(NC(=O)c3nc4ccccc4s3)c2O[C@H]1CN(C)S(C)(=O)=O
34	Cc1cc(C(=O)NCc2cc(F)cc3c2OCOC3)nn1C
35	C[C@@H]1CN([C@@H](C)CO)C(=O)c2cc(NC(=O)NC3CCCCC3)ccc2O[C@@H]1CN(C)S(C)(=O)=O
36	C[C@@H]1CN([C@H](C)CO)C(=O)c2cc(NC(=O)CCCN(C)C)ccc2O[C@H]1CN(C)S(=O)(=O)c1cn(C)cn1
37	CCNC(=S)Nc1sc2c(c1C#N)CCC(C)C2 (stereo not drawn)
38	Cc1ccc(C)c(NC(=O)CC(Cc2ccccc2)C(=O)O)c1 (stereo not drawn)
39	O=C(Oc1ccc(C(=S)N2CCCCC2)cc1)c1ccccc1
40	COc1ccc(S(=O)(=O)N(C)C[C@@H]2Oc3ccc(NC(=O)Nc4ccc5c(c4)OCO5)cc3C(=O)N([C@@H](C)CO)C[C@H]2C)cc1

entry no.	31	32	33	34	35	36	37	38	39	40
BJeLR viab HTS	-0.3	-2.5	5.2	-1.5	1.3	-2.3	1.5	1.0	-2.0	-5.1
A1 inhib	0.0	·	·	-0.4	-0.8	1.4	0.3	1.9	0.0	0.3

Continued, overlapping the part above by 3 compounds.
38	Cc1ccc(C)c(NC(=O)CC(Cc2ccccc2)C(=O)O)c1 (stereo not drawn)
39	O=C(Oc1ccc(C(=S)N2CCCCC2)cc1)c1ccccc1
40	COc1ccc(S(=O)(=O)N(C)C[C@@H]2Oc3ccc(NC(=O)Nc4ccc5c(c4)OCO5)cc3C(=O)N([C@@H](C)CO)C[C@H]2C)cc1
41	Cc1ccc(S(=O)(=O)N(C)C[C@H]2Oc3ccc(NC(=O)Nc4c(C)noc4C)cc3C(=O)N([C@H](C)CO)C[C@H]2C)cc1
42	C=Cc1ccc(O[C@@H]2O[C@H](CO[C@@H]3O[C@@H](C)[C@H](O)[C@@H](O)[C@H]3O)[C@@H](O)[C@H](O)[C@H]2O)cc1
43	CCc1ccc(NS(=O)(=O)c2ccc3[nH]c(=O)ccc3c2)cc1
44	CNC[C@H]1Oc2ccc(NC(=O)Cn3cnnn3)cc2C(=O)N([C@H](C)CO)C[C@@H]1C
45	CC1(C)CC(=O)C(C(N)=NC(=O)c2ccccc2)=C(O)C1
46	CC(C)(C)OC(=O)N1CCC(C(=O)N2CCCCC2)CC1
47	NS(=O)(=O)c1ccc(-n2cccc2/C=N/n2cnnc2)cc1
48	Cc1ccc(S(=O)(=O)Nc2ccc3c(c2)C(=O)N([C@@H](C)CO)C[C@H](C)[C@@H](CN(C)C(=O)Nc2c(C)noc2C)O3)cc1
49	C[C@H](CO)N1C[C@H](C)[C@@H](CN(C)C(=O)Nc2ccccc2)Oc2c(NC(=O)c3ccc(-c4nccs4)cc3)cccc2C1=O
50	CCOC(=O)c1ccc(-n2c(=S)[nH]c3ccccc32)cc1

entry no.	38	39	40	41	42	43	44	45	46	47	48	49	50
BJeLR viab HTS	1.0	-2.0	-5.1	0.8	-1.6	5.2	2.3	3.2	-1.3	3.0	-0.4	3.3	1.4
A1 inhib	1.9	0.0	0.3	0.3	-0.1	-0.6	0.7	0.2	-0.1	0.8	-0.1	·	-8.0

51	O=C(C1=C2Sc3ccccc3N2CC(C(=O)c2ccccc2)C1)c1ccccc1 (stereo not drawn)
52	CCc1ccc(-c2nc(C(N)=O)c3[nH]c(=O)n(-c4ccccc4)c3n2)cc1
53	CSc1nc2n(n1)C(=O)CC(C)(C)N2
54	Cc1ccc(S(=O)(=O)Nc2cccc3c2O[C@@H](CN(C)S(=O)(=O)c2cccs2)[C@H](C)CN([C@H](C)CO)C3=O)cc1
55	CC(=O)Nc1nc(C23CC4CC(CC(C4)C2)C3)cs1
56	C[C@H]1CN([C@@H](C)CO)C(=O)c2cc(NS(=O)(=O)c3ccccc3)ccc2O[C@@H]1CN(C)Cc1ccc(C(=O)Nc2ccccc2N)cc1
57	CCN(CC)C(=S)CSc1nc(-c2ccccc2)cc(-c2ccco2)c1C#N

entry no.	51	52	53	54	55	56	57
BJeLR viab HTS	11.5	-0.4	3.5	4.1	-9.8	-6.1	-0.8
A1 inhib	·	-0.3	·	·	-0.1	·	-0.1

Entries of single compounds, looked up by structure. Order of values: BJeLR viab HTS, A1 inhib
Listed for Cc1ccc(S(=O)(=O)Nc2cccc3c2O[C@@H](CN(C)S(=O)(=O)c2cccs2)[C@H](C)CN([C@H](C)CO)C3=O)cc1 = 4.1, ·
Listed for CSc1nc2n(n1)C(=O)CC(C)(C)N2 = 3.5, ·

Not all compounds are listed (hit frequency here may not be typical).
